VACV Venus inh = inhibitors of vaccinia virus (Venus reporter). Vaccinia virus Venus reporter expression, fluorescence. Potency, µM (doses to about 36.5 µM), for inactives: at the top dose activity change, negative = inhibition, usual class: inhibitors. actives 0.46% (n = 330,000); active means well fitted inhibition curve with a large enough effect; inconclusive means small, poorly fitted or top-dose-only effect; inactive means no such curve, though single readings can be large or run the other way; tested in A549 cells; also: nearly all actives have a fitted effect of over 30% in size; inactives centre near -10
VACV mCherry inh = vaccinia inhibition (mCherry reporter); Vaccinia virus mCherry reporter infection, fluorescence; about a quarter of the inactives have no number; AID 720579; actives 0.63% (n = 310,000); Potency, µM (series often up to 36.5 µM), without a hit: top-dose activity change, negative = inhibition, most hits filed as inhibitors; active = well fitted inhibition curve with a large enough effect; inconclusive = small, poorly fitted or top-dose-only effect; inactive = no such curve, though single readings can be large or run the other way; tested in A549 cells; also: nearly all actives have a fitted effect of over 35% in size; inactives centre near -10
An asterisk follows results filed as active; i = inactive; ? = inconclusive; . = no result given; & = joins results of further samples. % is scaled to controls: 0 for no effect and ±100 for the full control effect; potency is read from the fitted curve at half-maximal effect. No enrichment for hits; about 0.86% have a hit in one of these screens.

SMILES | VACV Venus inh | VACV mCherry inh
COCCCn1c(Cc2csc(Nc3cccc(Cl)c3)n2)nnc1SCC(=O)OC1CCCCC1 | -7.6% | .
COC(=O)c1ccc2c(=O)[nH]c(COC(=O)c3c(-c4ccccc4Cl)noc3C)nc2c1 | -15.7% | -27.9%
COC(=O)c1c(C)[nH]c(C(=O)OCC(=O)c2ccc(C)s2)c1C | -0.4% | -3.8%
Cc1cc(C)c(NC(=O)C2CCC(=O)N2)c(C)c1 (configuration not stated) | -7.2% | -11.5%
Cc1ccc(S(=O)(=O)N(C)CC(=O)NC2CCCC2)cc1 | -8.6% | -12.8%
Cn1cnc(CCNC(=O)C[C@H]2CC[C@@H]3[C@H](COC[C@H](O)CN3C(=O)C3CCCC3)O2)c1 | -7.2% | -4.3%
COc1ccccc1NS(=O)(=O)c1cccc(C(=O)N/N=C/c2ccc(OCC(=O)O)cc2)c1 | -20.7% | -13.3%
COC(=O)C1=C(c2ccc(F)cc2OCc2ccccc2)C[C@@H]2CC[C@H]1N2C(=O)NCc1ccc2[nH]ccc2c1 | -29.7% | ?
COc1ccc(NS(=O)(=O)c2cccc(C(=O)NNC(=O)c3cncc(Br)c3)c2)cc1 | -2.1% | -8.7%
Cc1cc(C)c2c3c(sc2n1)C1(CCSCC1)C(C#N)=C(N)O3 | -16.0% | -9.5%
CNC(=S)NCc1ccc(Cl)cc1 | -16.7% | i
Cc1noc(C)c1S(=O)(=O)N(C)C[C@@H]1OCc2cnnn2CCCC(=O)N([C@H](C)CO)C[C@@H]1C | -10.8% | -11.0%
O=C(COc1ccc(-n2cnnn2)cc1)Nc1ccc(F)c(Cl)c1 | 12.9% | -26.5%
Nc1cccc(/C=C/C(=O)O)c1 | -6.4% | i
CCCC(C(=O)NC1CCCC1)N(C(=O)Cn1nnc(-c2ccc(C)o2)n1)c1ccccc1F (configuration not stated) | 4.6% | -3.8%
C=C(C)C1(O)OC(=O)C=C1OC (configuration not stated) | -11.0%&1.1% | -12.0%&12.0%
O=C(Cc1ccc([N+](=O)[O-])cc1)N/N=C/c1ccc([N+](=O)[O-])o1 | 11.2µM* | 10µM*
COC(=O)CNC(=O)C(Cc1c[nH]c2ccccc12)NC(=O)Oc1ccccc1 (configuration not stated) | -14.2% | -9.6%
COc1ccc(CNC(=O)c2ccc(S(=O)(=O)N3CCOCC3)cc2)cc1 | 1.4% | i
O=[N+]([O-])c1ccc(NC(=S)N2CCc3ccccc3C2)cc1 | -19.8% | -4.5%
O=C(Nc1ccc2c(c1)OCO2)c1ccc(S(=O)(=O)NCC2CCCO2)cc1 (configuration not stated) | -2.8% | -2.6%
COc1cc(C(C)=O)ccc1OCC(=O)Nc1ccccc1N1CCCCC1 | ? | ?
Cn1c(/C=C/N2CCOCC2)c(C(=O)c2ccc(Br)cc2)c(=O)n(C)c1=O | -17.3% | .
NC(=O)c1cccc(-c2csc(C(O)c3cccc(Cl)c3)n2)c1 (configuration not stated) | 0.0% | i
C=C(c1ccccc1O)n1ccnc1 | -4.6% | -8.4%
COC(=O)c1ccc(OC)c(CN2CCCN(Cc3ccc(F)cc3)S2(=O)=O)c1 | -2.9% | -18.4%
COc1cc(OC)cc(C(=O)N[C@H](C(=O)Nc2cc(F)ccc2C)C(C)C)c1 | -7.6% | -5.7%
O=C(NC(=O)c1c(F)cccc1F)Nc1cc(Cl)c(F)c(Cl)c1F | -7.7% | i
Cc1nc2sc(C(c3ccco3)N3CC(C)OC(C)C3)c(O)n2n1 (configuration not stated) | -1.8% | -13.3%
O=C(N/N=C/c1cccs1)c1cc(-c2ccc3ccccc3c2)n[nH]1 | ? | .
Cc1cc(C)nc(NS(=O)(=O)c2ccc(NC(=O)c3ccccc3O)cc2)n1 | -22.8% | -14.8%
CC(C)(NC(=O)N1CCCC1)c1cccc(C(C)(C)NC(=O)N2CCCC2)c1 | -16.4% | .
COc1cccc(CC(=O)Nc2nc3ccccc3[nH]2)c1 | -10.8% | -12.6%
CC(C)NC(=O)CN(c1cccc(Br)c1)S(C)(=O)=O | -10.7% | -21.7%
C=C1CCC(O)C2(C)CCC3C(C)C(=O)OC3C12O (configuration not stated) | 0.1% | i
c1ccc(CCn2nnnc2C(c2cccnc2)N2CCN(c3nc4ccccc4s3)CC2)cc1 (configuration not stated) | -24.3% | ?
O=C(Nc1cccnc1)c1ccc(CSc2ccccc2)cc1 | 3.8% | -1.0%
O=C(CSc1nnc(-c2cccs2)n1Cc1ccco1)Nc1ccc2c(c1)OCO2 | -23.2% | .
O=C(OCc1ccc(Cl)c(Cl)c1)c1ccc[nH]1 | -4.8% | -4.4%
O=C(CS(=O)(=O)Cc1ccccc1)Nc1ccc(S(=O)(=O)N2CCOCC2)cc1 | -8.3% | -8.6%
c1ccc(-c2ccccc2OCCCN2CCCC2)cc1 | -15.1% | i
Cc1ccc(-n2nc3c([n+]2[O-])CCc2nonc2-3)cc1 | -4.3% | -13.2%
CC(C)(C)c1ccc(/C=C/C(=O)N2CCOCC2)cc1 | -14.4% | i
Cc1cccc([N+](=O)[O-])c1NC(=O)CN(Cc1ccccc1)Cc1ccccc1 | -19.5% | i
COc1ccccc1CCc1nc2ccccc2n1C1CCN(C(=O)c2cc(C)nn2C)CC1 | -0.6% | -8.3%
C[C@H]1CN(C2CCCCC2)C(=O)[C@@H]1CC(=O)NCc1ccccc1 | -11.7%&-9.5% | -20.0%
COc1cc2c(NC3CCN(C)CC3)nc(N3CCCN(C)CC3)nc2cc1OCc1ccccc1 | ? | ?
COc1ccc(N2C(=O)c3ccccc3NC2(C)C)cc1 | -14.8% | -18.3%
COc1ccc(-n2ncc(C(=O)NCc3cccs3)c2C2CCN(C(=O)OC(C)(C)C)CC2)cc1 | -11.5% | -5.1%
C=CCOC(=O)C1=C[C@@H](c2coc3ccccc3c2=O)[C@H](CCCO)[C@@H](OCC)O1 | -10.8% | i
CCc1ccc(OCC(=O)NC(=S)Nc2ccc(C)cc2C)c(Br)c1 | 0.0% | -26.4%
Cc1ccc(S(=O)(=O)N2CCC(C(=O)OCC(=O)N(C)CC(=O)Nc3ccc(F)cc3)CC2)cc1C | -14.0% | -2.2%
Cc1c(-c2ccccc2)n[nH]c1C(=O)N=Nc1c(O)[nH]c2ccccc12 | ? | -11.7%
COC(=O)CC(=O)Cc1nc(N)nc(Nc2ccc(C)c(C)c2)n1 | -16.0% | -20.4%
C[C@H](CO)N1C[C@H](C)[C@@H](CN(C)S(=O)(=O)c2cn(C)cn2)Oc2ccc(NC(=O)Nc3ccc4c(c3)OCO4)cc2C1=O | -16.1% | -19.3%
CCCCNS(=O)(=O)c1ccc(OCC(=O)OC)cc1 | -6.4% | -0.2%
Nc1c(O)cccc1C(=O)O | -11.9% | i
COc1ccccc1-c1nc2ccccc2c(=O)n1NC(=O)c1cccs1 | -8.7% | i
C#CCn1c2ccccc2c2nc3ccccc3nc21 | -9.4% | -22.9%
COc1ccc(NC(=O)CCN2CCN(c3cccc(Cl)c3)CC2)cc1 | -15.0% | -19.4%

Taken from above.
In VACV mCherry inh, Cc1ccc(S(=O)(=O)N2CCC(C(=O)OCC(=O)N(C)CC(=O)Nc3ccc(F)cc3)CC2)cc1C is listed with -2.2%
In VACV Venus inh, c1ccc(-c2ccccc2OCCCN2CCCC2)cc1 is listed with -15.1%

The listing picks up with the 2 entries that preceded the break.
SMILES | VACV Venus inh | VACV mCherry inh
C#CCn1c2ccccc2c2nc3ccccc3nc21 | -9.4% | -22.9%
COc1ccc(NC(=O)CCN2CCN(c3cccc(Cl)c3)CC2)cc1 | -15.0% | -19.4%
CCN(C(=O)COC(=O)c1cc(OC)c(OC)cc1[N+](=O)[O-])C1CCS(=O)(=O)C1 (configuration not stated) | 2.4% | -3.8%
CCOC(=O)c1c(-c2ccccc2)[nH]c2ccc(O)cc12 | ? | .
O=C(C[C@H]1C/C=C\C[C@H](NC(=O)OCC2c3ccccc3-c3ccccc32)C(=O)O[C@@H](c2ccccc2)CNC1=O)NCCO | -11.0% | -3.3%
COc1ccc(C(CNC(=O)COc2ccc(F)cc2Cl)N2CCCCC2)cc1 (configuration not stated) | -5.5% | i
CCC1CN(CC(=O)NC(C)c2cn(C)nc2C)Cc2cc(OC)ccc2O1 (configuration not stated) | 3.0% | -8.8%
O=S(=O)(NCC(c1ccco1)N1CCN(c2ccccc2F)CC1)c1ccc2c(c1)OCCO2 (configuration not stated) | -21.5% | ?
Nc1nc(NCc2ccco2)nc(Nc2ccc(F)cc2)c1[N+](=O)[O-] | -9.6% | i
Cc1ccc(CN2CCC(n3nccc3NC(=O)c3ccccc3C)CC2)o1 | -4.2% | -11.6%
COC(=O)Nc1nnc(Cc2ccc(OC)cc2)s1 | -5.1% | -17.7%
CCOC(=O)c1[nH]ncc1CN1CCCC(C(=O)c2ccc(OC)cc2C)C1 (configuration not stated) | -11.8% | -3.2%
COc1cccc(CNc2ncn[nH]2)c1OCc1ccccc1F | -10.9% | i
COc1ccc(-c2ccc3c(N)c(C(=O)Nc4ccc(C)cc4C)sc3n2)cc1OC | -9.9% | -20.0%
O=C(CCCN1C(=O)c2cccc3cccc(c23)C1=O)N1CCN(c2ccccc2O)CC1 | -29.2% | ?
O=C(Nc1cc2nn(-c3ccccc3)nc2cc1Cl)c1ccco1 | -10.3% | .
CC(=O)Nc1c(NC(C)C)c2ccccc2oc1=O | -5.7% | -0.8%
CCc1ccc(C(=O)COC(=O)CNC(=O)C2CCCCC2)cc1 | 2.9%&-9.8% | -13.0%&-4.0%
Cc1cccc(N(CC(=O)NC2CCCC2)C(=O)c2cc3cc4cccc(C)c4nc3s2)c1C | 1.8% | -3.0%
CC(=O)C1C2c3ccccc3OC1(C)N=c1s/c(=C/c3cnn(C)c3)c(=O)n12 (configuration not stated) | -0.8% | .
CCCCNCc1cc(OCC)c(OCC(N)=O)cc1Br | 0.3% | -14.2%
COc1ccc(C2/C=C\CN(C(=O)NC(C)C)CC(=O)N2Cc2ccc(F)cc2)cc1 (configuration not stated) | -18.6% | -26.7%

Part of the list above, with each value named.
> CCC1CN(CC(=O)NC(C)c2cn(C)nc2C)Cc2cc(OC)ccc2O1 (configuration not stated)
  VACV Venus inh: 3.0%; VACV mCherry inh: -8.8%

> O=S(=O)(NCC(c1ccco1)N1CCN(c2ccccc2F)CC1)c1ccc2c(c1)OCCO2 (configuration not stated)
  VACV Venus inh: -21.5%; VACV mCherry inh: ?

> Nc1nc(NCc2ccco2)nc(Nc2ccc(F)cc2)c1[N+](=O)[O-]
  VACV Venus inh: -9.6%; VACV mCherry inh: i

> Cc1ccc(CN2CCC(n3nccc3NC(=O)c3ccccc3C)CC2)o1
  VACV Venus inh: -4.2%; VACV mCherry inh: -11.6%

Other compounds follow:
SMILES | VACV Venus inh | VACV mCherry inh
CC(C(=O)OCc1nnc(-c2ccccc2)o1)N1C(=O)c2ccccc2C1=O (configuration not stated) | -11.6% | .
CCN(CC)c1ccc(C(=O)OCc2c(C)noc2C)cc1 | 0.3% | -1.3%
Cn1nnnc1SCC(=O)c1c(N)n(C)c(=O)n(C)c1=O | -5.8% | .
COc1ccc(NC2=NCCC2)cc1 | 6.6% | .
COC(=O)c1ccc(NC2c3ncccc3C(=O)N2Cc2cccs2)cc1 (configuration not stated) | -2.2% | i
Cn1ccnc1SCC(=O)Nc1ccc2nc(SCC(=O)NC3CC3)sc2c1 | -26.3% | .
CN1CCC(=NNC(=O)C(=O)NC2CCCC2)CC1 | -2.2% | .
CCC(CC)c1ncc[nH]1 | -10.2% | i
CCOc1ccc(S(=O)(=O)N2CCN(c3nc(-c4ccccc4)nc4ccccc34)CC2)cc1OCC | -8.9% | -13.4%
CC(C)CCNC(=O)CN1C(=O)c2cccnc2Sc2ccccc21 | -4.4% | 5.4%
CCN(CC)c1ccc(NC(=O)c2ccc(S(=O)(=O)N3CCOCC3)cc2)cc1 | -5.1% | -10.4%
CCN1CCc2c(sc(NC(=O)C3COc4ccccc4O3)c2C(N)=O)C1 (configuration not stated) | ? | -16.9%
COc1ccc(N2CCN(C(=O)Cn3nnc(-c4cccs4)n3)CC2)cc1 | -5.0% | -18.9%
Cc1nnc(SCC(=O)N(C)C2CCCCC2)s1 | 14.9% | i
O=C(NCc1ccc(N2CCCC2=O)cc1)c1cn(CCc2ccccc2)nn1 | -8.0% | i
COc1ccc(/C(C)=N/N=C2/NC(=O)CC(C(=O)O)S2)cc1 (configuration not stated) | -19.1% | -11.4%
CN(CCCNC(=O)CN1C(=O)CC(C)(C)S(=O)(=O)c2ccccc21)C1CCCCC1 | -0.3% | -12.9%
O=c1[nH]c(CSc2nnc(Cc3ccccc3)o2)nc2ccccc12 | -3.5% | -7.3%
COc1ccc(-c2nn(C)c3sc(C(=O)N4CCN(c5cc(Cl)ccc5C)CC4)cc23)cc1OC | -3.9% | 3.8%
O=C(OCC(=O)N1CCCCC1)c1ccccc1SCC(=O)N1CCCCC1 | -21.8% | -7.0%
C=CCn1c(SC)nnc1-c1cccc([N+](=O)[O-])c1 | -10.2% | -8.1%
COc1ccc(C2/C(=C(\O)c3cc(C)ccc3C)C(=O)C(=O)N2CCN(C)C)cc1OC (configuration not stated) | -8.0% | -9.2%
COc1cccc(-c2nnc(NC(=O)c3ccccc3Br)o2)c1 | -17.5% | ?
OCCNc1nc(Nc2ccccc2)nc2ccccc12 | ? | .
c1ccc(-c2nnnn2CCOCCn2nnnc2-c2ccccc2)cc1 | -13.0% | i
COc1ccc(C(=O)CN2CCCCC2)cc1 | -12.9% | -15.0%
O=P1(c2ccccc2)Nc2ccccc2N1c1ccccc1 (configuration not stated) | 23.3% | ?
Nc1nc(SCC(=O)NCCOCCO)nc2sc3c(c12)CCCC3 | -17.3% | -21.1%
